High-throughput results: PubChem BioAssay, National Center for Advancing Translational Sciences (NCATS)
miR-21 reporter: raises the signal of a miR-21 reporter; AID 2288; HeLa miR-21 FLuc reporter, luciferase, 48 h; 340,000 tested, under 10 active; Potency, µM (doses to about 38.3 µM), without a hit: at the top dose reporter change, positive = more light; active = well fitted rising curve with a large enough effect; inconclusive = small, poorly fitted or top-dose-only effect; inactive = no such curve, though single readings can be large or run the other way;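 note: % of control where 0% means no effect; miR-21 action dims this reporter so a rising signal means less miR-21 action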
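Luminescence from a firefly luciferase reporter carrying a miR-21 binding site downstream, stably expressed under a CMV promoter in HeLa cells that make miR-21 endogenously, reports miRNA modulation after 48 h compound exposure up to approximately 40uM final.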
Rango dissoc inh: inhibitors of RanGTP-induced Rango-importin beta complex dissociation; O95149+P62826; Biochemical FRET Rango-importin beta, RanGTP-induced dissociation; Potency, µM (highest dose often 46.1 µM), without a hit: at the highest dose activity change, negative = inhibition; actives 0.071% (n = 340,000); active means falling FRET ratio curve, often poorly fitted, with flat reads before Ran was added; inconclusive means other falling curves, or compound fluorescence or quenching; inactive means flat or rising ratio curve;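 note: potency is the fitted concentration of half-maximal effect; % of control where 0% means no effect; nearly all actives have a fitted effect of over 45% in size; -100% = wells without RanGTP and RCC1; the record marks most hits as doubtful in a second field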
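Rango/importin beta premix (0.1/0.25 uM final), PBS + 1 mM DTT + 0.02% Tween-20 + 0.1% BSA; cpd 5 min RT; FRET pre-read; + RanGTP-RCC1 (0.6 uM Ran, 2 mM GTP, 0.2 uM RCC1); 45 min RT; FRET post-read, ex 430, em 486/530 nm.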
GLA inh pH 4.5: inhibitors of human alpha-galactosidase A at pH 4.5; P06280; purified enzyme, 4-MU-alpha-Gal fluorescence, pH 4.5; activity change, negative = inhibition, % at 105 µM; 230,000 tested, under 10 active; AID 1467; inconclusive = small, poorly fitted or top-dose-only inhibition, or a rising curve; inactive = flat fitted curve, though single readings scatter; no compound was filed as active;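 note: 0% = full activity with enzyme and -100% = basal without enzyme; dose as in the result columns while the protocol names 77 µM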
Rango complex inh: Rango-importin beta binding inhibition | Potency, µM (series often up to 92.2 µM), without a hit: at the highest dose inhibition of complex formation | actives 0.031% (n = 340,000) | Rango CFP/YFP FRET sensor + importin beta, 45 min; active = rising FRET ratio curve, often small or poorly fitted; inconclusive = mostly compound fluorescence or quenching in the first reads; inactive = flat curves in all reads;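 note: potency is the fitted concentration of half-maximal effect; 0% = DMSO wells and 100% = buffer wells lacking importin beta; nearly all actives have a fitted effect of over 15% in size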
Target sequence (Q14974 whole entry, looked up): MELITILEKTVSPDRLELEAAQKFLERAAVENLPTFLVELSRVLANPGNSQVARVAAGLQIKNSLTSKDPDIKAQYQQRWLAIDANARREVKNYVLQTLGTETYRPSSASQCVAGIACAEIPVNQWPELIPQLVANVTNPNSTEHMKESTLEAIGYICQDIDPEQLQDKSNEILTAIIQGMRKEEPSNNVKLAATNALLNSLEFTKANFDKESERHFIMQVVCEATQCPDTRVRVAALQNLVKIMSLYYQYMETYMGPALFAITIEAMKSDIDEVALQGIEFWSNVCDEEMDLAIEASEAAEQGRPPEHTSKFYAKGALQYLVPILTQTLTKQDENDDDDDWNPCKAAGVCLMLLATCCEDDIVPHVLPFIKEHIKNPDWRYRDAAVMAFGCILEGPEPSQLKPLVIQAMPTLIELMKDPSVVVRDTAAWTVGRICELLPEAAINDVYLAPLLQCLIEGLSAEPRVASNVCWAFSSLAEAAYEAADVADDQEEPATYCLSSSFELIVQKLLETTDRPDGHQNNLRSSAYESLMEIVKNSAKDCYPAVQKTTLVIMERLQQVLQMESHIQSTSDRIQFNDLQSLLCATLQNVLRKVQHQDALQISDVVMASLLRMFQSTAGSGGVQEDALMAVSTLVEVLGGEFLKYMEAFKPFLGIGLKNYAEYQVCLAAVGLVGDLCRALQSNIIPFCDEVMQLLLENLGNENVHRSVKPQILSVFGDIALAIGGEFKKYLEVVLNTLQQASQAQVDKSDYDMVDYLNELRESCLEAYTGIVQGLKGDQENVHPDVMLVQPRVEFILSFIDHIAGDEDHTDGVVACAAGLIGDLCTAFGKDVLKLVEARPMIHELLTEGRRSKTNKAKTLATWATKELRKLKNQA
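Inhibition scored from the CFP 486 nm/YFP 530 nm FRET ratio 45 min after adding 0.125 microM importin beta to 50 nM Rango biosensor preincubated 5 min with compound (room temperature, PBS with DTT, Tween-20, BSA). No-importin wells as positive control.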
Numbers without * were called inactive; u = inconclusive; x = not tested or not shown. A portion of the library; the hit share may differ from the screen's.

GLA inh pH 4.5	Rango complex inh	miR-21 reporter	Rango dissoc inh	Compound
x	-1.2%	x	-10%	C=C1CCN([C@@H](Cc2ccccc2)C(=O)NCc2ccc(Cl)c(Cl)c2)S(=O)(=O)c2ccccc21
5	u	-1%	-28%	N#CC1=C(N)NC(SCC(=O)c2ccc(Cl)cc2)=C(C#N)C12CCCC2
x	-1.8%	x	2%	CC1(c2ccc3ccccc3c2)CCC(=O)O1 (stereo not given)
2	u	-20%	u	CCCN(CCC)c1nc(N)c(C#N)c(CC#N)c1C#N
x	0.3%	1%	3%	COc1ccc(Cl)cc1S(=O)(=O)N1CCN=C1c1ccccc1
0	-2.3%	-70%	6%	COC(=O)c1sccc1N/N=C/c1cccc(Oc2ccccc2)c1
7	-0.5%	0%	0%	COCCNC(=S)N/N=C/c1ccc(OCc2ccc(C(=O)OC)cc2)cc1
-2	0.3%	-8%	-2%	COc1cc(OC)cc(C(=O)NNC(=O)c2ccccn2)c1
x	-1.5%	-12%	-2%	COc1ccc(-c2cc3c(=O)n(CC(=O)NCc4ccccc4F)ncn3n2)cc1
-20	2.8%	7%	-12%	CCOc1ccccc1NC(=O)Nc1ccon1
-7	2.3%	-3%	-10%	CCN(CC)C(=O)c1c([N+](=O)[O-])c(C(C)(C)C)nn1C
2	0.2%	-3%	4%	Cc1cc(C)c(C)c(S(=O)(=O)NCC(=O)NCc2ccco2)c1C
-13	1.0%	1%	-3%	NS(=O)(=O)c1ccc(CCNC(=O)CSc2nc3ccsc3c(=O)n2CCCCCC(=O)O)cc1
x	-2.3%	x	0%	CC(C)c1ccc(S(=O)(=O)N2CCN(C(=O)CCNC(=O)Nc3ccccc3)CC2)cc1
5	2.0%	7%	8%	O=C(NCC1CCCN(C(=O)c2cscn2)C1)c1ccc(-c2ccccc2)cc1 (stereo not given)
-4	-0.2%	-4%	-3%	Cc1ccc(-c2ccc(=O)n(CC(=O)N3CCN(c4cc(Cl)ccc4C)CC3)n2)cc1
5	-0.3%	-1%	0%	Cc1ccc2[nH]c(=O)c(CN(Cc3cccnc3)Cc3nnnn3CCN3CCOCC3)cc2c1
x	2.1%	x	0%	O=C(N/N=C/c1ccc(Br)cc1)c1ccc(NC(=O)c2ccccc2)cc1
-8	1.0%	-2%	2%	COc1ccccc1N1Cc2ccccc2C1
x	1.8%	-10%	9%	Cc1ccc(CSc2[nH]c(=O)ncc2C)cc1

Not a retest: an excerpt of the list.
GLA inh pH 4.5	Rango complex inh	miR-21 reporter	Rango dissoc inh	Compound
5	2.0%	7%	8%	O=C(NCC1CCCN(C(=O)c2cscn2)C1)c1ccc(-c2ccccc2)cc1 (stereo not given)
-4	-0.2%	-4%	-3%	Cc1ccc(-c2ccc(=O)n(CC(=O)N3CCN(c4cc(Cl)ccc4C)CC3)n2)cc1
5	-0.3%	-1%	0%	Cc1ccc2[nH]c(=O)c(CN(Cc3cccnc3)Cc3nnnn3CCN3CCOCC3)cc2c1
x	2.1%	x	0%	O=C(N/N=C/c1ccc(Br)cc1)c1ccc(NC(=O)c2ccccc2)cc1
-8	1.0%	-2%	2%	COc1ccccc1N1Cc2ccccc2C1
x	1.8%	-10%	9%	Cc1ccc(CSc2[nH]c(=O)ncc2C)cc1

Going on with the list.
GLA inh pH 4.5	Rango complex inh	miR-21 reporter	Rango dissoc inh	Compound
-7	0.1%	11%	3%	CCC(=O)Nc1ccc(N/C(N)=N/c2nc(C)cc(C)n2)cc1
x	-5.7%	0%	10%	CC(C)C(NS(=O)(=O)/C=C/c1ccccc1)C(=O)NCc1ccc(F)cc1 (stereo not given)
0	u	-21%	u	Cc1nc(N)sc1-c1csc(NCc2ccccc2)n1
x	-0.2%	x	5%	O=C(COC(=O)c1ccccc1O)Nc1ccc2ccccc2c1
-3	u	-8%	16%	COC(=O)c1ccc(CSc2nc3ccccc3c(=O)n2-c2cccc(OC)c2)o1
-9	-0.9%	-6%	-15%	CCCCOC(=O)Cn1c(=O)c2c(nc(Br)n2Cc2ccccc2)n(C)c1=O
2	u	-7%	u	N#CC1=C(N)Oc2c(sc3ccccc23)C1c1ccco1 (stereo not given)
-13	0.1%	-21%	-8%	Cc1nnsc1C(=O)NNc1ccc(Cl)cc1
-1	1.4%	16%	1%	CC1CSc2n(-c3cccc(C(F)(F)F)c3)cc(-c3ccccc3)[n+]21 (stereo not given)
x	-0.1%	-1%	-2%	CC(C(=O)O)n1c2ccccc2c2cn[nH]c(=O)c21 (stereo not given)
-8	2.2%	2%	21%	O=C(O)CCC(=O)N1CCN(c2cccc(Cl)c2)CC1
1	-0.5%	-15%	18%	COCc1ccc([C@@H]2C[C@H]3CN(Cc4ccccc4C)C(=O)[C@]34CCCN24)o1
-7	0.0%	7%	12%	Cc1cc(-c2c(C(=O)N3CCOCC3)c(C)nn2-c2ccccc2)no1
u	3.1%	-4%	0%	CCCS(=O)(=O)c1c(S(=O)(=O)CCC)c2cnccn2c1C(=O)c1ccc(CC)cc1
-8	x	-38%	x	Cc1cccc(-n2ncc3c(N4CCc5ccccc54)ncnc32)c1
x	3.5%	18%	6%	COc1cc(C2c3[nH]c4ccccc4c3C[C@H]3C(=O)N(CCO)CC(=O)N23)cc(OC)c1OC (stereo not given in full)
-1	-4.4%	2%	-17%	CCOC(=O)c1c(NC(=O)CSc2ncnc3ccccc23)sc(C)c1C
x	0.2%	-1%	0%	CC1CCCCC1NC(=O)CCNS(=O)(=O)c1ccc(Cl)cc1 (stereo not given)
-4	-0.3%	-7%	1%	O=C(Cc1cccs1)N1CCCC(c2nc3c(nnn3Cc3ccc(F)cc3)c(=O)[nH]2)C1 (stereo not given)
4	-5.1%	-5%	-3%	CCN1C(=O)CC(N2CCN(C(c3ccccc3)c3ccccc3)CC2)C1=O (stereo not given)
-7	-2.4%	-4%	-5%	COc1ccc(OC)c(C(c2nnnn2C2CCCC2)N2CCN(c3ccccc3)CC2)c1 (stereo not given)
x	2.5%	x	18%	O=C1OC(c2ccccc2)(c2cc(Br)ccc2O)c2ccccc21 (stereo not given)
-24	0.0%	5%	2%	CC(C)C[C@H](NC(=O)c1nc[nH]c1C(=O)N[C@@H](CC(C)C)C(=O)OC(C)(C)C)C(=O)OC(C)(C)C
0	2.8%	0%	31%	O=c1ccc2cc(S(=O)(=O)Nc3ccc(F)cc3)ccc2o1
5	-0.2%	0%	2%	COc1ccc(NC(=O)CSc2nnc(CNC(=O)COc3ccc(Cl)cc3)o2)c(OC)c1
-9	-0.8%	28%	-15%	O=C(Nc1ccc(N2CCOCC2)cc1)c1cnsn1
x	-5.8%	2%	9%	COc1ccc(CN(C(=O)CCC(=O)Nc2cc(C)on2)C(C(=O)NC(C)(C)C)c2cccc(OC)c2OC)cc1 (stereo not given)
x	-1.1%	x	-7%	Cc1ccc(S(=O)(=O)N(C)CC(=O)NCC(c2ccc(F)cc2)N2CCOCC2)cc1 (stereo not given)
-7	-1.8%	-5%	-10%	CC(=O)c1ccc(OCC(O)CN2CCN(c3ccccn3)CC2)cc1 (stereo not given)
1	u	-2%	u	O=C1Cc2ccccc2Sc2c(OCCN3CCCCC3)cccc21
x	-1.4%	-4%	-5%	CCN(CC)CCN(C(=O)c1ccc2c(c1)CCCC2)c1nc2ccc(OC)cc2s1
-1	u	-2%	7%	CC(/C=N/NC(=O)CSc1nc(C)cc(C)n1)=C\c1ccccc1
x	0.0%	-3%	0%	CC(=O)N=c1sccn1CC(O)c1ccccc1 (stereo not given)
-1	0.8%	-5%	15%	COC(=O)c1cnc(N2CCOCC2)nc1C(F)(F)F
3	5.2%	-1%	7%	CC(C)CCn1c(C(C)O)nc2ccccc21 (stereo not given)
-7	0.5%	-24%	-6%	c1ccc2c(-c3nc(-c4ccncc4)no3)cccc2c1
-14	-2.7%	-2%	14%	Cc1ccc(S(=O)(=O)N(C)c2ccc(C)c([N+](=O)[O-])c2)cc1
x	-1.4%	x	0%	COc1ccc(Br)cc1CN(C)C(=O)Cc1ccc(OC)c(S(=O)(=O)N2CCOCC2)c1
4	-1.0%	14%	3%	CC1CCN(C(=O)Cn2c(SCC(=O)Nc3nccs3)nc3ccccc32)CC1
12	3.2%	-27%	3%	COc1ccc(NC(=O)NC2CCCCC2C)cc1 (stereo not given)
-1	-0.6%	-1%	5%	O=C(CCc1nc2ccccc2c(=O)[nH]1)OCCOc1ccc(Cl)cc1
x	-4.9%	x	-11%	O=C(CS(=O)(=O)c1ccc(F)cc1)Nc1nccs1
-5	-4.4%	-10%	-8%	S=c1[nH]nc(COc2ccccc2)n1/N=C/c1cccs1
x	-0.3%	1%	-8%	O=C(Cn1nc(-c2ccco2)ccc1=O)Nc1ccc(Cl)c(Cl)c1
x	-1.9%	-2%	2%	C=CCN(c1ccc(C(=O)Nc2ccc3c(c2)n(C)c(=O)n3C)cc1)S(C)(=O)=O
1	0.0%	-6%	11%	O=C(O)C1CCCCC1C(=O)Nc1ccc(Cl)cc1 (stereo not given)
-4	0.9%	1%	-19%	CCn1c(C(=O)Nc2ccsc2C(=O)OC)cc2sc(Cl)cc21
-1	1.6%	-3%	-4%	COc1ccc(-n2c(/C=C3\C(=O)N(C)c4ccccc43)nc3ccccc3c2=O)cc1
x	1.3%	0%	9%	CN(Cc1cnn(C)c1)C(=O)C1CCC(=O)N(Cc2cccc(C(F)(F)F)c2)C1 (stereo not given)
x	0.6%	x	4%	COc1cccc(C2c3cc4c(cc3OC(NNC(N)=O)C2C)OCO4)c1O (stereo not given)
-2	-1.4%	-1%	19%	O=C(COC(=O)c1ccccc1)Nc1cccc(S(=O)(=O)N2CCOCC2)c1
-26	x	15%	x	Cc1[nH]c(=S)sc1Cc1ccc(Cl)c(Cl)c1
-4	2.5%	-1%	-16%	O=S(=O)(NCC1OCCc2ccccc21)c1ccc(S(=O)(=O)N2CCOCC2)cc1 (stereo not given)
x	-2.9%	-1%	0%	CCOc1ccccc1NC(=O)CCNS(=O)(=O)c1ccc2[nH]c(=O)oc2c1
4	0.4%	-1%	-5%	Cc1cc(C)nc(NS(=O)(=O)c2ccc(NC(=O)CSc3nc4ccccc4[nH]3)cc2)n1
x	1.0%	-1%	-5%	O=C(CSc1ccc(-c2ccc(Br)cc2)nn1)NC1CCCC1
4	-2.6%	-61%	-2%	CCN1CCN(Cc2ccc(NC(=O)Nc3ccccc3Cl)cc2)CC1
x	-2.2%	x	0%	c1ccc(N=Nc2ccc3cccccc2-3)cc1
-6	4.6%	-4%	12%	COc1ccccc1N1C(=O)CC(Sc2nc(C)cc(C)n2)C1=O (stereo not given)
-3	1.4%	-41%	-1%	COc1cc(NC(=O)C(C)C)ccc1NC(=O)c1ccco1

Continuation:
GLA inh pH 4.5	Rango complex inh	miR-21 reporter	Rango dissoc inh	Compound
0	0.5%	-1%	0%	COc1ccc(NC(=O)COC(=O)C2CCN(S(=O)(=O)c3cccs3)CC2)cc1
x	-0.7%	x	-8%	Cc1ccc(S(=O)(=O)N2CCOCC2)cc1C(=O)N1CCN(S(=O)(=O)c2cccc(F)c2)CC1
x	-5.9%	28%	-13%	COc1ccc(CNCCC(c2ccc(OC(C)C)cc2)c2ccccc2OC)cc1OC (stereo not given)
x	u	-2%	u	Cc1ccc(S(=O)(=O)/C(C#N)=C/c2c(N3CCN(Cc4ccccc4)CC3)nc3ccccn3c2=O)cc1
x	0.3%	x	24%	CCOC(=O)c1c(NC(=O)COC(=O)CCOc2ccc(C)cc2)sc(C(=O)N(C)C)c1C
1	0.7%	-4%	-4%	Cc1nn(C)c(C)c1C1C(C#N)=C(N)Oc2n[nH]c(C)c21 (stereo not given)
x	-0.7%	-52%	14%	Cc1nonc1NC(=O)c1oc2ccccc2c1C

Reprinted at random: four entries already listed, in no set order.
GLA inh pH 4.5	Rango complex inh	miR-21 reporter	Rango dissoc inh	Compound
x	0.3%	x	24%	CCOC(=O)c1c(NC(=O)COC(=O)CCOc2ccc(C)cc2)sc(C(=O)N(C)C)c1C
x	u	-2%	u	Cc1ccc(S(=O)(=O)/C(C#N)=C/c2c(N3CCN(Cc4ccccc4)CC3)nc3ccccn3c2=O)cc1
1	0.7%	-4%	-4%	Cc1nn(C)c(C)c1C1C(C#N)=C(N)Oc2n[nH]c(C)c21 (stereo not given)
x	-5.9%	28%	-13%	COc1ccc(CNCCC(c2ccc(OC(C)C)cc2)c2ccccc2OC)cc1OC (stereo not given)
